Screens as filed in PubChem BioAssay.
VDR inhibitor = inhibitors of human vitamin D receptor. P11473. VDR-SRC2-3 peptide fluorescence polarization, 2 h. Potency, µM, inactives show max response, negative = inhibition, usual class: inhibitors. hit rate 0.93% among 400,000. AID 504847; active means well fitted inhibition curve with a large enough effect; inconclusive means small, poorly fitted or top-dose-only effect, or another doubt; inactive means no such curve, though single readings can be large or run the other way; further: series mostly up to about 120 µM
Target sequence (P11473 whole entry, looked up): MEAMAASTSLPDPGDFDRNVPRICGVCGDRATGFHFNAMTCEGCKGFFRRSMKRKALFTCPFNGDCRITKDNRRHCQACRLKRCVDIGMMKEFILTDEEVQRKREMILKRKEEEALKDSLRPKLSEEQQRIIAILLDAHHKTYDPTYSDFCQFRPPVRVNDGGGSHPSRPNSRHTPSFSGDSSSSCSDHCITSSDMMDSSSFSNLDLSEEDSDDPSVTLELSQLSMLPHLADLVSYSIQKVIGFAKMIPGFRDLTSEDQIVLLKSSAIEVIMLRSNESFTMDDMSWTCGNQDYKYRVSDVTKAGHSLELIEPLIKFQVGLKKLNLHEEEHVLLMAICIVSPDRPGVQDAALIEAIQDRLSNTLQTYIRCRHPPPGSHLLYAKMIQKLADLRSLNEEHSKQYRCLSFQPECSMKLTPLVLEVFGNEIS
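Inhibition of the VDR/SRC2-3 peptide interaction is quantified by fluorescence polarization. Compounds (23 nl, pintool) incubate with the reagents for 2 hours at ambient room temperature.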
An asterisk follows results filed as active; ? = inconclusive; & = joins results of further samples. On the % scale 0 is the no-effect control and ±100 the full control effect; potency means the concentration at half of the fitted maximal effect. Not all compounds are listed (hit frequency here may not be typical).

SMILES | VDR inhibitor
CCOc1ccc(C(=O)NCC(=O)OCCN2C(=O)c3ccccc3C2=O)cc1OCC | 10%
Nc1c2c(nc3ccccc13)CCC2 | 5%
CCc1c(C)sc(NC(=O)Cc2ccccc2C)c1C(=O)N1CCOCC1 | -11%
COCCN(C(=O)COC(=O)c1ccc2c(c1)OCCO2)c1c(N)n(Cc2ccccc2)c(=O)[nH]c1=O | 12%
CCCCN(C)C(=O)C(Cc1ccccc1)NS(=O)(=O)c1ccc2c(c1)c(=O)n(C)c(=O)n2C (centres undefined) | -12%&0%
CCOc1ccc(C(=O)Nc2cccc(-c3nc4ccccc4[nH]3)c2C)cc1[N+](=O)[O-] | 4%
Cc1onc(-c2c(F)cccc2Cl)c1C(=O)NCCCN1CCOCC1 | 1%
O=C(COC(=O)CCc1ccccc1)Nc1ncc(Cl)cc1Cl | 13%
CN(C)CCNc1ncnc2c1sc1nc(N3CCCC3)c3c(c12)CC(C)(C)OC3 | -13%
CCC(C)(C)NC(=O)C(c1ccc(OC)cc1)N(C(=O)CCC(=O)Nc1cc(C)on1)C1CC1 (centres undefined) | 10%
COc1ccc(NC(=O)c2sc3nc(C)nc(N4CCOCC4)c3c2C)c(OC)c1 | -6%
CCOC(=O)c1nnsc1NC(C)=O | 18%
CC(C)(C)OC(=O)N[C@@H](COCc1ccccc1)C(=O)N[C@@H](CO)[C@H](O)[C@@H]1C[C@@H]1C(=O)NC1CC1 | -1%
Cc1sc2ncn(CC(=O)NCCCC(=O)N3CCN(c4ccccn4)CC3)c(=O)c2c1C | 12%
CC(C)(C)C1CCC(C(=O)Nc2nccs2)CC1 (centres undefined) | -16%
CN(CC(=O)Nc1ccc(Cl)c(C(F)(F)F)c1)C(=O)C1CC(=O)N(Cc2ccco2)C1 (centres undefined) | -15%
O=C(c1ccco1)N1CCN(c2ncnc3c(-c4ccc(Cl)cc4)nsc23)CC1 | -5%
CCCCC(=O)Nc1ccc(Br)cc1C(=O)O | -1%
CCCCCCCc1nc2c(=O)n(C)c3ccccc3c2o1 | 10%
COc1cccc(-n2nnnc2SCC(=O)Nc2ccc3c(c2)OCCO3)c1 | -14%
COCCNC(=O)c1ccc(CN2CCc3ccccc3C2)cc1 | 0%
Cc1cc2c(=O)n(C)c(SCC(=O)NCC3CCCO3)nc2s1 (centres undefined) | -25%
CCOc1ccc(C(=O)Nc2cc3c(cc2N2CCCC2)n(C)c(=O)c(=O)n3C)cc1OCC | -16%
C/C(=N\NC(=O)c1cc2ccccc2cc1O)c1ccc2c(c1)OCO2 | -8%
C[C@H](CO)N1C[C@H](C)[C@@H](CN(C)S(=O)(=O)c2cccs2)Oc2ccc(NC(=O)Nc3ccc(C(F)(F)F)cc3)cc2C1=O | -5%
COC(=O)CC1Oc2ccc(Cl)cc2-n2cc(-c3ccc(F)cc3)nc21 (centres undefined) | 0%
CCOC(=O)c1cc(S(=O)(=O)Nc2ccccc2)[nH]n1 | 20%
CCS(=O)(=O)C1=NN2C(=N)/C(=C\c3ccc(OCCOc4cccc(OC)c4)c(OC)c3)C(=O)N=C2S1 | -18%
Cc1cc(C)cc(N(CC(=O)N2CCN(Cc3ccccc3)CC2)S(=O)(=O)c2c(C)noc2C)c1 | -12%&-7%
CCOC(=O)c1ccccc1NC(=O)CN1CCC(n2nnc3cc(C(F)(F)F)ccc32)CC1 | ?
O=C(CCC(=O)Nc1ccccc1)NCCO | -1%
Cn1c(=O)oc2cc(S(=O)(=O)NC(CC(=O)O)c3cccc(Br)c3)ccc21 (centres undefined) | 8%
O=C(NNC(=S)NCc1ccccc1)c1ccc(Br)o1 | 11%
COc1cc2sc(-c3ccccc3OC)c(-c3ccc(OCCN4CCCCC4)cc3)c2cc1OC | 0%
COc1ccc(CN2CC(C(=O)NCCc3ccccc3)CC2=O)cc1 (centres undefined) | -8%
Cc1c(NC(=O)c2cnc(Cl)c(Cl)c2)c(=O)n(-c2ccccc2)n1C | 5%
Cc1ccc(NS(=O)(=O)c2cccc(C(=O)N(C)Cc3cccs3)c2)cc1 | 3%
CCOC(=O)N1CCN(c2c(N3CCc4ccccc43)c(=O)c2=O)CC1 | 2%
COc1cccc(N2CCN(S(=O)(=O)c3ccc4c(c3)N(C(C)=O)CCO4)CC2)c1 | -4%
O=[N+]([O-])c1ccc(N2CCN(S(=O)(=O)c3ccccc3)CC2)c2cccnc12 | ?
CCOc1ccc(CCNC(=O)COC(=O)Cn2cnc3ccccc3c2=O)cc1OCC | 11%
COc1ccc(C)cc1S(=O)(=O)N1CCCC(C(=O)N2CCN(c3ccccc3F)CC2)C1 (centres undefined) | -10%
Cn1cc(S(=O)(=O)N2CCCCC2)cc1C(=O)NCc1ccc(Cl)cc1 | 10%
CCn1c(CCNC(=O)c2ccccc2Cl)n[nH]c1=S | 10%
Cc1ccc(SCC(=O)NC(=O)NCc2ccco2)c(C)c1 | -3%
CSc1ccc(CNC(=O)c2ccc(NC(=O)c3nsc4ccccc34)cc2)cc1 | -12%
COc1ccc(S(=O)(=O)Nc2cc3c(cc2NCc2ccccc2)n(C)c(=O)n3C)cc1 | -6%
Cc1ccc(C(=O)NC2CC(C)(C)NC(C)(C)C2)cc1Cl | 8%
COc1ccc(OC)c(C(c2nnnn2Cc2ccccc2)N2CCC(C(N)=O)CC2)c1 (centres undefined) | 3%
CN(C)CCCN(C(=O)c1ccco1)c1nc2ccc(F)cc2s1 | -24%
CCC(=O)c1cc2c(C)cc(=O)oc2c(C)c1OC(C)=O | -4%
CC(C)Cn1c(-c2ccc(Br)o2)n[nH]c1=S | -1%
Cc1cc(C)c(/C([O-])=C(/C(=S)Nc2ccc(SC(F)F)cc2)[n+]2ccccc2)cc1C | -1%
OCCN1c2ccccc2CCc2ccccc21 | -5%
CCN1Cc2c(/C=C/c3ccccc3)nc3ccc(OC)cc3c2N(c2cccc(Cl)c2)C1 | -21%
CC1(/[N+]([O-])=C/c2cccc(Cl)c2)CCCCC1=O (centres undefined) | -5%
N/C(=N\OC(=O)Nc1ccccc1)c1ccno1 | 2%
COc1ccc(OCC(=O)C2CC2)c(C#N)c1 | 3%
Cc1c(C(=O)N2CCCC2)c(S(=O)(=O)Nc2ccccc2Cl)c(C)n1C | -9%
O=C(C1CCCN(Cc2ccccc2[N+](=O)[O-])C1)N1CCCC1 (centres undefined) | -14%

Next structures follow.
SMILES | VDR inhibitor
CCOC(=O)/C(C#N)=C\C1=C(N2CCOCC2)CC(C)(C)OC1 | -4%
CNC(=O)COc1ccc(C=O)cc1OC | 9%
COc1cc(NC(=O)c2csc(N)n2)cc(C(=O)Nc2cccc(C(F)(F)F)c2)c1 | 2%
COc1cccc(N/C(C)=C/C(=O)c2ccc(Br)cc2)c1 | -2%
CCCOC(=O)c1c(NC(=O)c2cc3ccccc3c(=O)o2)sc2c1CCC(C)C2 (centres undefined) | 8%
CCC(C)(C)NC(=O)C(c1cccc(OC)c1OC)N(Cc1ccc(OC)cc1)C(=O)CCC(=O)Nc1cc(C)on1 (centres undefined) | 12%
CCCCc1ccc(NC(=O)CSc2nc(=O)n(CCN(CC)CC)c3c2CCC3)cc1 | 3%
CCOC(=O)c1cc2c(=O)n3cccc(C)c3nc2n(CC2CCCO2)c1=NC(C)=O (centres undefined) | -1%&17%
Cc1ccc(S(=O)(=O)CC(C)N2CCN(C3CCCCC3)CC2)cc1 (centres undefined) | -3%
Cc1ccc2nc(SCc3nc4cc(Cl)ccc4c(=O)[nH]3)[nH]c2c1 | 2%
COc1ccccc1CN1CC(C(=O)NCc2cnn(C)c2)CCC1=O (centres undefined) | 16%
CCCN1CNc2c(c(=O)[nH]c(=S)n2CCc2ccc(OC)cc2OC)C1 | -6%
NC(N)=N/N=C/c1cc([N+](=O)[O-])ccc1O | -21%
CCn1c(=O)cc(OCC(=O)Nc2ccc(C)c(F)c2)c2ccccc21 | 8%
Cn1cnnc1SCC(=O)c1c[nH]c2ccccc12 | -18%
CCOCCCN(C(=O)c1ccco1)C(C(=O)NC1CCCC1)c1cccc(OC)c1OC (centres undefined) | -4%
COCC(C)N1CCC(Oc2cccc(C(=O)NCCc3ccccc3)c2)CC1 (centres undefined) | -9%
O=S(=O)(NCCc1csc(-c2ccc(C(F)(F)F)cc2)n1)c1ccc2c(c1)OCCO2 | 11%
C/C(=N/NC(=O)c1cc(-c2cccc([N+](=O)[O-])c2)n[nH]1)c1ccc(Cl)cc1 | 5%
CC1CN(C(=O)c2ccc(Br)c(S(=O)(=O)N3CCOCC3)c2)CC(C)O1 (centres undefined) | -2%
CCCC(=O)Nc1ccc(C(=O)COC(=O)C2CC2)cc1 | -11%
O=C(NCc1ccco1)c1csc2c1CCCC2 | 10%
COc1ccc(CN2CCCCC2C)c(C)c1C (centres undefined) | 10%
C[C@H]1O[C@@H](O[C@H]2CC[C@@]3(C)C(CC[C@]4(C)C3C=C[C@]35OC[C@@]6(CCC(C)(C)C[C@H]63)[C@@H](O)C[C@]54C)[C@]2(C)CO)[C@H](O)[C@@H](O[C@@H]2O[C@H](CO)[C@@H](O)[C@H](O)[C@H]2O)[C@H]1O (some centres undefined) | -15%
O=C(COC(=O)c1cccc(NC(=O)c2ccco2)c1)c1ccc(Br)cc1 | 14%
N#CCCn1c(SCC(=O)NCc2ccco2)nc2ccccc21 | 5%
CCOC(=O)c1[nH]c(=O)[nH]c1CN(Cc1ccco1)Cc1[nH]c(=O)[nH]c1C(=O)OCC | 2%
Cc1ccc2[nH]c(C(=O)N3CCN(C(c4ccccc4)c4ccccc4)CC3)cc2c1 | -8%
CC(NC(=O)c1ccco1)C(=O)Nc1nc(-c2ccccn2)cs1 (centres undefined) | -18%
COc1cc2nncc(SC)c2cc1OC | 11%
Cc1nn(C(=O)c2cccnc2)c(C)c1Sc1ccc(Br)cc1 | -1%
CCOC(=O)c1cnc2c(C)cccc2c1NCCCN1CCOCC1 | 12%
O=C(Nc1cccn2ncnc12)c1ccccc1 | 10%
COc1ccc(C(=O)N2CCOC2CNC(=O)C(=O)NCc2ccc(Cl)cc2)cc1 (centres undefined) | -10%
CC1CCCCC1NC(=O)/C=C/c1nc2ccccc2s1 (centres undefined) | -19%
O=C(Nc1cccc(F)c1)C1CCCN(C(=O)c2ccc(Cl)cc2)C1 (centres undefined) | -5%
O=C1CN(C(=O)COC(=O)c2ccc(Br)o2)c2ccccc2N1 | -6%
CCc1ccc(N2CN(Cc3cccnc3)CNC2=S)cc1 | -10%
Cc1cccc(NC(=O)C(Cc2ccccc2)c2nn[nH]n2)c1C (centres undefined) | 5%
COc1ccc2cc(C(=O)C3CCCN(C(=O)Cc4c(C)noc4C)C3)ccc2c1 (centres undefined) | 4%
COc1ccccc1NC(=O)c1ccccc1S(=O)(=O)c1ccccc1[N+](=O)[O-] | -16%
COCCNC(=O)C(=O)Nc1c2c(nn1-c1ccccc1)CS(=O)(=O)C2 | 9%
COC(=O)Cc1c(C)c2ccc(OCC(=O)NC3CCS(=O)(=O)C3)cc2oc1=O (centres undefined) | 11%
COc1ccc(CN(C)CC2CCCN(CCc3ccc(F)cc3)C2)c(OC)c1OC (centres undefined) | -4%
Cn1c(=O)c2c(nc(Oc3ccc(-c4ccccc4)cc3)n2C)n(C)c1=O | 3%
COCCCN1C(=O)C(=O)/C(=C(/O)c2ccccc2)C1c1ccc(N(C)C)cc1 (centres undefined) | 4%
CN(C(=O)COC(=O)c1ccc2ccccc2n1)C1CCS(=O)(=O)C1 (centres undefined) | -3%
CCN(CC)S(=O)(=O)c1cc(NC(=O)C(C)Nc2ccccc2N2CCOCC2)ccc1C (centres undefined) | -1%
CCc1[nH]nc(C(=O)NC2CCCc3c2cnn3-c2cc(C)cc(C)c2)c1C (centres undefined) | -3%
CCc1c(C(=O)N/N=C/c2ccco2)nnn1-c1nonc1N | -11%
O=C(CSCc1ccc(Br)cc1)N1CCOCC1 | -15%
COc1ccc(CC(=O)Nc2sc3c(c2C(=O)Nc2ccccc2)CCCCC3)cc1 | 10%
Cc1nnsc1C(=O)NNS(=O)(=O)c1ccccc1 | -5%
COc1ccc(C(C)(C)C)cc1NC(=O)C1=CC=CN2CCS(=O)(=O)N=C12 | -11%
Cc1nc2ccccc2c(=O)n1-c1cccc(NS(=O)(=O)c2ccccc2)c1 | -15%
CN(c1ccccc1)S(=O)(=O)c1ccc(NC(=O)c2cccs2)cc1 | 6%
COc1nc(OC)nc(N2CCC(C(=O)NCc3cccs3)CC2)n1 | 9%

Of the compounds above, these have a furan ring, fused or not:
SMILES | VDR inhibitor
CN(CC(=O)Nc1ccc(Cl)c(C(F)(F)F)c1)C(=O)C1CC(=O)N(Cc2ccco2)C1 (centres undefined) | -15%
O=C(c1ccco1)N1CCN(c2ncnc3c(-c4ccc(Cl)cc4)nsc23)CC1 | -5%
O=C(NNC(=S)NCc1ccccc1)c1ccc(Br)o1 | 11%
Cc1ccc(SCC(=O)NC(=O)NCc2ccco2)c(C)c1 | -3%
CN(C)CCCN(C(=O)c1ccco1)c1nc2ccc(F)cc2s1 | -24%
CC(C)Cn1c(-c2ccc(Br)o2)n[nH]c1=S | -1%
CCOCCCN(C(=O)c1ccco1)C(C(=O)NC1CCCC1)c1cccc(OC)c1OC (centres undefined) | -4%
O=C(NCc1ccco1)c1csc2c1CCCC2 | 10%
O=C(COC(=O)c1cccc(NC(=O)c2ccco2)c1)c1ccc(Br)cc1 | 14%
N#CCCn1c(SCC(=O)NCc2ccco2)nc2ccccc21 | 5%
CCOC(=O)c1[nH]c(=O)[nH]c1CN(Cc1ccco1)Cc1[nH]c(=O)[nH]c1C(=O)OCC | 2%
CC(NC(=O)c1ccco1)C(=O)Nc1nc(-c2ccccn2)cs1 (centres undefined) | -18%
O=C1CN(C(=O)COC(=O)c2ccc(Br)o2)c2ccccc2N1 | -6%
CCc1c(C(=O)N/N=C/c2ccco2)nnn1-c1nonc1N | -11%
